Vaccinia mCherry – qHTS for Stage-Specific Inhibitors of Vaccinia Orthopoxvirus: mCherry Reporter Primary qHTS. Vaccinia virus mCherry reporter infection, fluorescence; about a quarter of the inactives have no number. Potency, µM (top dose mostly 36.5 µM), inactives show at the top dose activity change, negative = inhibition, most hits filed as inhibitors. hit rate 0.63% among 310,000. AID 720579, 2013; active = well fitted inhibition curve with a large enough effect; inconclusive = small, poorly fitted or top-dose-only effect; inactive = no such curve, though single readings can be large or run the other way; tested in A549 cells; also: nearly all actives have a fitted effect of over 35% in size; inactives centre near -10
VACV Venus inh – qHTS for Stage-Specific Inhibitors of Vaccinia Orthopoxvirus: Venus Reporter Primary qHTS; Vaccinia virus Venus reporter expression, fluorescence; hit rate 0.46% among 330,000; Potency, µM (highest dose often 36.5 µM), without a hit: at the highest dose activity change, negative = inhibition, most hits filed as inhibitors; active means well fitted inhibition curve with a large enough effect; inconclusive means small, poorly fitted or top-dose-only effect; inactive means no such curve, though single readings can be large or run the other way; tested in A549 cells; also: nearly all actives have a fitted effect of over 30% in size; inactives centre near -10
* = called active by the depositor; i = inactive; ? = inconclusive; / = no result given; & = joins results of further samples; [ ] = another dose, or the depositor's remark. % is scaled to controls: 0 for no effect and ±100 for the full control effect; potency is read from the fitted curve at half-maximal effect.

Compound,VACV Venus inh,Vaccinia mCherry
Cc1ccc(C(=O)Nc2ccccc2F)cc1S(=O)(=O)N1CCOCC1,-2%,-2%
Cc1csc(NC(=O)c2ccc(S(C)(=O)=O)cc2)n1,-7%,-12%
CCOc1ccccc1N(CC(=O)N1CCOCC1)S(=O)(=O)c1ccccc1,-7%,-10%
COc1ccc(NC(=O)C2CCCN(S(=O)(=O)c3ccc4c(c3)CCCC(=O)N4)C2)cc1OC (configuration not stated),-9%,-11%
CCC(=O)NCCc1nc2cc(NC(=O)c3cccc(Br)c3)ccc2n1C,-16%,-10%
COc1cc2cc(CN(CCc3cccc(C)c3)C(=S)NCCCN(C)C)c(=O)[nH]c2cc1OC,-26%,i
CN1CCN(c2ccccc2NC(=O)c2ccc(F)cc2)CC1,-11%,1%
CC(C)(C)c1ccccc1NC(=O)c1ccco1,-12%,-4%
CC(C)(C)n1nnnc1C(c1ccccc1OC(F)(F)F)N1CCN(C/C=C/c2ccccc2)CC1 (configuration not stated),-8%,-3%
O=C(COC(=O)C1CC(=O)N(c2ccc3c(c2)OCCO3)C1)Nc1ccc2c(c1)CCC2 (configuration not stated),-12%,/
O=C(Cc1ccccc1)NCC(=O)N/N=C/c1ccc(Cl)cc1,-17%,-4%
Cc1ccccc1Cn1c(=O)n(Cc2ccco2)c(=O)c2sc3ccccc3c21,-2%,-3%
COC(=O)CSC1=C(C#N)C(c2ccc(C(C)C)cc2)CC(=O)N1 (configuration not stated),-15%,i
COc1ccc(NS(=O)(=O)c2ccc(C)c(C(=O)NCCCn3ccnc3)c2)cc1,-5%,0%
COc1ccc(C(=O)NCC(=O)OCC(=O)Nc2cc([N+](=O)[O-])ccc2F)cc1,-2%,3%
Cc1cc(C)c(S(=O)(=O)NCC(c2ccco2)S(=O)(=O)c2cccs2)c(C)c1 (configuration not stated),-15%,-10%
CCc1ccc(NC(=O)CCn2c(-c3ccc(OC)cc3)cc(C(C)=O)c2C)cc1,-10%,-18%
CCCn1c(-c2cccc([N+](=O)[O-])c2)nc2c1c(=O)[nH]c(=O)n2Cc1ccccc1,?,i
CN1CCN(CC(=O)Nc2c(C(=O)c3ccccc3)oc3ccccc23)CC1,-23%,13%
COc1ccc2c(c1)cc1c(=O)n(CC(=O)NC(C)C)nc(C)n12,0%,-4%
COCCCC1CCN(C(=O)C2CCC(=O)N(CC3CCCCC3)C2)CC1 (configuration not stated),-19%,i
CCN(CC(=O)Nc1ccc2c(c1)OCCO2)Cc1nc2cc(Cl)ccc2c(=O)[nH]1,-11%,0%
CCOC(=O)C(/C(C)=N/NC(=O)c1ccccc1[N+](=O)[O-])C(C)C (configuration not stated),-11%,-8%
COc1ccc(CN2CC[C@H]3C=CC[C@@H](C(=O)NCc4cccnc4)[C@H]3C2=O)cc1OC,-4%,i
COc1ccc(NC(=O)c2ccc3ncsc3c2)c2ccccc12,-2%,-14%
Cc1cccc(C)c1NC(=O)COC(=O)c1ccccc1Nc1ccccc1,-4%,-5%
CCCCCOC(=O)Cn1c(SCC(=O)Nc2ccccc2)nc2c1c(=O)[nH]c(=O)n2C,-17%,/
Cn1c(=O)c(Nc2ccc(Cl)cc2)c2c3c(cccc31)C(=O)c1ccccc1-2,38%[activator],8%
O=C(OCCNC(=O)c1ccc2ccccc2n1)c1cccnc1,-2%,?
CC1=C(C#N)C(=O)NC1(C)O (configuration not stated),-2%,i
CCOc1ccccc1-c1noc(CSc2nnc(-c3ccccc3)n2-c2cccc(C)c2)n1,-11%,-17%
CCc1cccc(NC(=O)c2ccc3c(c2)N(Cc2cccc(Cl)c2)C(=O)c2ccccc2S3=O)c1 (configuration not stated),-8%,-10%
O=[N+]([O-])c1ccccc1C=NN1CCCCCC1,-10%,-20%
CN(CC(=O)NCCc1ccc(S(N)(=O)=O)cc1)S(=O)(=O)/C=C/c1ccccc1,-7%,i
Nc1n[nH]c(N)c1N=Nc1ccc(Cl)cc1,?,-27%
Cn1nc(CC(=O)Nc2ncc(Br)s2)c2ccccc2c1=O,12%,/
O=C(O)CSc1nccn1-c1cccc(Cl)c1,-4%,/
CSc1ccccc1C(=O)Nc1ccc2c(c1)OCCO2,-29%,/
Cn1cnnc1SCC(=O)NC1CC1,-6%,i
CN(C)c1ccc(N=Nc2ccc(S(=O)(=O)O)cc2)cc1,10%,-25%
CCCN(CCC)CCc1cccc2c1CC(=O)N2,-1%,-5%
Cc1ccc(NS(=O)(=O)c2c(C(=O)N3CCOCC3)c(C)n(C)c2C)cc1C,0%,-11%
CC(C)C[C@H]1CN=C(Nc2ccccc2)N1CC(C)C,-3%,i
CC(C)CCn1cnc2c([nH]c3cccc(Cl)c32)c1=O,-13%,/
COC(=O)c1ccc(CSc2nc(C(F)F)cc(C)c2C#N)o1,-21%,i
CC(=O)c1ccccc1NC(=O)CN1C(=O)NC2(CCCCCCC2)C1=O,-6%,i
O=C(CSc1nccn1-c1ccccc1)NCc1ccc(F)cc1,0%,0%
COc1ccc(C)cc1NS(=O)(=O)c1cccc2nonc12,-13%,-20%
CCC(C)c1ccc(S(=O)(=O)N2CCN(CC(O)COCC3CCCO3)CC2)cc1 (configuration not stated),-12%,-20%
Cc1nccn1CC(=O)c1ccc(O)c(O)c1,-2%,-2%
CCCCN(CCCC)CCCNC(=O)C1CC(c2cc(C(F)(F)F)cc(C(F)(F)F)c2)=NO1 (configuration not stated),-12%,-2%
O=C(NCc1ccc(F)cc1)c1cc(C2CCCN(S(=O)(=O)c3ccccc3)C2)on1 (configuration not stated),-9%,-11%
Cc1cc(C=O)c(C)n1-c1ccc(NC2CCCC2)c([N+](=O)[O-])c1,4%,-7%
COc1ccc2oc(C(=O)CCC(=O)O)c(N)c2c1,-20%,-17%
Cc1ccc(NC(=O)C2(C)CCCN(C(C)C)C2)cc1C (configuration not stated),7%,0%
CC(=O)Nc1ccc(S(=O)(=O)Nc2ccccc2C(=O)N2CCOCC2)cc1,-3%,i
CC1(C)CC(=O)CC(C)(C)N1O,-12%,-1%
O=C(Nc1ccccc1C(=O)N1CCCCC1)NC1CCCCC1,-3%,-8%
O=C(Nc1cccc(-c2ccc(N3CCOCC3)nn2)c1)c1ccccc1Cl,-5%,-11%
COc1cccc(OC)c1C(=O)NC(=S)Nc1ccc2c(c1)OCCO2,-2%,9%

Remaining list, next part
Compound,VACV Venus inh,Vaccinia mCherry
Cc1ccc(NC(=O)CN2C(=O)NC(C)(CCc3ccccc3)C2=O)cc1 (configuration not stated),-22%,-21%
Cc1ccc(S(=O)(=O)NCC(=O)N2CCN(c3ccccc3F)CC2)cc1,-21%,-20%
CCc1ccc([C@H]2C(C(=O)O)=C[C@@H](C(C)(C)C)N2S(=O)(=O)c2ccc(C)cc2)cc1,-23%,-22%
CCOc1ccc(S(=O)(=O)n2ccc(C)n2)cc1,-12%,i
CC(=O)c1c(C)[nH]c(C(=O)CN(C)CC(=O)Nc2ccccc2Cl)c1C,-10%,-14%
O[C@@H]1CCCC[C@H]1N1CCC(c2ccccc2)CC1,-5%,i
Cc1ccc(CN2CCSc3ccc(C(=O)N4CCN(c5cc(C)ccc5C)CC4)cc32)cc1,-19%,-4%
Cc1ccccc1NC(=O)CNc1ccccc1N1CCCCC1,-24%,-19%
Cc1ccc(NC(=O)CS(=O)CC(=O)Nc2ccccc2-c2ccc(C)o2)cc1 (configuration not stated),114%[activator],?
COc1cccc(NC(=S)N(CCCN2CCOCC2)Cc2cn(C)c3ccccc23)c1,-22%,-15%
Cc1ccc(/C=C/c2nc3ccccc3[nH]2)o1,-3%,-11%
COc1ccc(S(=O)(=O)Nc2cccnc2)c(Cl)c1Cl,0%,-10%
CN(/N=C/c1ccc(Cl)cc1)c1ncc(Cl)cc1C(F)(F)F,-4%[7.34 µM],i[7.34 µM]
C[C@H](CO)N1C[C@H](C)[C@@H](CN(C)Cc2ccccc2)Oc2c(NS(=O)(=O)c3cn(C)cn3)cccc2C1=O,-9%,?
COc1ccc(Cn2cccc(NC(=O)Nc3ccc(C#N)cc3)c2=O)cc1,-24%,?
COc1cc(=O)n2c(c1C(=O)NC(C)c1ccco1)CCN(CC=C(C)C)CC2 (configuration not stated),-11%,-10%
Cc1ccc(OCC(=O)N2CCC3(CC2)CC(=O)c2ccccc2O3)cc1,-8%,-11%
C=CCN1C(=O)/C(=C/c2cc(C)n(-c3cccnc3)c2C)C(=O)NC1=S,13%,-9%
Cc1nn(CC#N)c(=O)n1-c1ccccc1F,-14%,-16%
Cc1nnc(SCC(=O)N2c3ccccc3C(C)(c3ccccc3)CC2(C)C)s1 (configuration not stated),?,?
COc1ccc(CCNC(=O)C(=O)NCC2OCCN2S(=O)(=O)c2ccc(Cl)cc2)cc1OC (configuration not stated),-26%,-22%
Cc1ccc(NC(=O)c2nc[nH]c2C(=O)NCc2ccccc2)cc1,?,0%
COc1ccc(CCNC(=O)/C=C/c2ccco2)cc1OC,-17%,?
CC(C)Oc1ccc2c(=O)c(-c3ccccc3)coc2c1,-20%&15%,-5%
COc1cccc(NC(=O)Cn2c(CCC(=O)O)ccc2-c2cccs2)c1,-20%,-27%
CCOC(=O)C1(CC/C(C)=N\NC(N)=O)CC(C)OC1=O (configuration not stated),-16%,-14%
CCc1ccc(O)c(N=Cc2cccc(C)c2O)c1,-21%,?
CCN(C(=O)c1cccc(Br)c1)c1ccccc1,-8%,i
c1ccc(OCCCc2nc(-c3ccccn3)no2)cc1,3%,/
COc1ccc(-c2c(C)nn3c(-c4ccccc4)cc(-c4ccccc4)nc23)cc1OC,-16%,-13%
Cc1cc(C)c2oc(-c3cc(NC(=O)Cc4ccccc4)ccc3Cl)nc2c1,-17%,-3%
CC(C)[C@H](NC(=O)N1CC(=O)Nc2ccccc21)C(=O)N[C@@H](C(=O)O)c1ccccc1,-5%,-16%
COc1ccc(-c2c3c(=O)n(C)c(=O)n(C)c3cn2-c2cccc(OC)c2)cc1,-11%,i
O=C(CSc1n[nH]c(=O)n1C1CC1)Nc1ccc(F)c(Cl)c1,-10%,i
Cc1ccccc1-c1nc(SCC(=O)NCC2CCCO2)c2c(=O)n(C)c(=O)n(C)c2n1 (configuration not stated),-9%,1%
COc1cccc(C(=O)NCc2cn3ccsc3n2)c1,0%,14%
Cc1ccc(CNC(=O)C2C3C=CC(C3)C2C(=O)O)cc1 (configuration not stated),1%,-10%
Cc1ccc(-c2cc(C(F)(F)F)n3nc(C(=O)Nc4c(C)n(C)n(-c5ccccc5)c4=O)cc3n2)cc1,-14%,-2%
O=C(CN(CCO)c1ccccc1)Nc1ccc(Cl)c(S(=O)(=O)N2CCOCC2)c1,-4%,-6%
O=C(COC(=O)c1cc(S(=O)(=O)N2CCOCC2)ccc1F)Nc1c(Cl)cccc1C(F)(F)F,-8%,i
COc1ccc(-c2nc(CS(=O)CC(=O)N3CCN(C)CC3)c(C)o2)cc1OC (configuration not stated),-14%,i
CC(=O)Nc1nnc(COc2ccc(Cl)cc2)s1,10%,-12%
N#CC1=C(N)OC2=C(CCc3ccccc32)C1c1ccccc1Cl (configuration not stated),?,?
CN1c2ccccc2C(C)(C)C12CC(c1ccc(S(=O)(=O)N3CCCCC3)cc1)=NO2 (configuration not stated),11%,-3%
O=C(NC1CCCC1)C1CCN(C(=O)c2ccc(-c3ccccc3)cc2)CC1,0%,-8%
COCCN1C(=O)C(=O)/C(=C(/O)c2ccc3c(c2)OCCO3)C1c1ccc(C(=O)OC)cc1 (configuration not stated),-10%,/
Cc1ccc(NN2C(=O)C=CC2=O)cc1,-9%,-9%
O=C(NCC1CCCO1)c1ccc(NS(=O)(=O)c2cccc([N+](=O)[O-])c2)cc1 (configuration not stated),-4%,-1%
O=C(Nc1ccccc1F)c1cc2c(s1)-c1ccccc1S(=O)(=O)C2,-15%,-18%
CCOC(=O)N1CCc2c(sc3nc(SC(C)C)n(N)c(=O)c23)C1,2%,-22%
O=C(NC1CCS(=O)(=O)C1)/C(=C\c1ccco1)NC(=O)c1ccccc1 (configuration not stated),-1%,-13%
COc1ccccc1NC(=O)COC(=O)Cn1c(C)csc1=O,-16%,-19%
COC(=O)c1cccc(Nc2cc(C)nc(-c3ccccc3O)n2)c1,?,-9%

Screens: PubChem BioAssay, National Center for Advancing Translational Sciences (NCATS)
